Bioassay records as filed in PubChem BioAssay.
BJeLR lethal = kills HRASV12-expressing BJeLR cells. BJeLR (HRASV12) viability, CellTiter-Glo ATP luminescence, 48 h; reference of the scale not given here. inhibition, % (test concentration not listed). actives 0.17% (n = 300,000). AID 1554;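 active means replicate mean above 50%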;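 further: 50 nL library stock added to about 25 µL; numbers are from one replicate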
Bead autofluor = flagged as autofluorescent in microsphere protease counterscreen; compound autofluorescence counterscreen, microsphere flow cytometry; hits give high values; fluorescence intensity (concentration not given with the values); actives 3.1% (n = 360,000);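 active means at least 3 SD above the mean of all compounds, about 16000 in these data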;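 further: 100 nL of 1 mM stock went into each well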
RN4220 kill = S. aureus RN4220 growth inhibition | OD600, 16 h | inhibition, % (concentration not given with the values) | actives 0.33% (n = 330,000) | AID 1259311;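 active means z-score of -3 or lower and OD600 up to 0.18 on both plates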;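 further: plate controls were untreated cells for no effect and reference antibiotic for full effect; stock transfer was 100 nL into about 80 µL; one replicate is shown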
Mtb hypoxia rep = Mtb hypoxia fluorescent reporter inhibition; M. tuberculosis hypoxia-regulated fluorescent reporter, fluorescence; fluorescence inhibition, % (concentration not given with the values); actives 0.1% (n = 300,000); AID 1159583;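 active means 35 to 45% if threefold the growth effect, above 45% if 1.5-fold the growth effect; inactive means the rest, general growth blockers included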;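 further: wells of about 50 µL received 100 nL stock; 0% = vehicle wells and 100% = reference inhibitor wells; whole bacteria with a GFP reporter of the hypoxia response; strong numbers were not always called active; many hits fall short of the cut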
ugtP null kill = kills S. aureus RN4220 lacking UgtP; S. aureus RN4220 ugtP deletion, OD600 growth, 16 h; some inactives read as strong as hits; growth inhibition, % (concentration not given with the values); actives 0.54% (n = 330,000);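 active means z-score under -3 and OD600 up to 0.15 on both plates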;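 further: plate controls were untreated wells for no effect and antibiotic for full effect; wells of about 80 µL received 100 nL stock; the first replicate is given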
PrP UTR inh = suppresses PrP 5' UTR mRNA reporter expression; cell-based PrP 5' UTR mRNA reporter, plate reader; inhibition, % (no concentration beside the values); actives 0.35% (n = 340,000);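 active means every replicate at 50% or more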;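 further: 0 = median of the neutral control wells; tested in H4 reporter cells; numbers are from one replicate; inactives centre near -14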
Mtb hypoxia rep growth = recorded beside Mtb hypoxia rep, whose call it bears; growth inhibition, %; measured here: M. tuberculosis growth (absorbance);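 0% = vehicle and 100% = reference antibiotic; read after six days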
* hit, by the source's call; · = not tested or not shown.

SMILES	BJeLR lethal	Bead autofluor	RN4220 kill	Mtb hypoxia rep	Mtb hypoxia rep growth	ugtP null kill	PrP UTR inh
CCOC(=O)C1=c2s/c(=C\c3ccncc3)c(=O)n2C(N)=C(C(=O)OC)C1c1ccncc1 (stereo not given)	5	4918	·	·	·	·	-14
O=C(COC(=O)CCc1c[nH]c2ccccc12)NC(c1ccccc1)c1ccccc1	-7	2360	6.1	1	0	1	-12
O=C(NCC1CCCO1)c1cc(-c2ccc(Cl)cc2Cl)on1 (stereo not given)	-6	2517	2.5	·	·	7	-36
CCOC(=O)C(=CNc1ccc(-c2ccco2)c(Cl)c1)C(=O)OCC	-5	2952	10	8	-6	-1	-30
CCn1ccnc1CC1COc2ccccc2O1 (stereo not given)	·	5265	5.7	4	1	5	-13
O=C(Nc1ccc2cn[nH]c2c1)c1ccc(S(=O)(=O)N2CCOCC2)cc1	4	4505	0.6	8	0	-1	-6
Cc1ccc(-c2nn3c(C)nnc3s2)cc1NC(=O)c1ccc(-c2ccc(Cl)cc2Cl)o1	·	16181*	20	12	18	-5	-8
CCC(C)NC(=O)Cc1ccc(-c2ccccc2)cc1 (stereo not given)	4	2590	-2.0	0	8	3	-14
Clc1ccc(-c2cc(-c3ccccc3)on2)cc1	·	2823	7.9	·	·	4	-70
Cc1cc(C)c(NC(=O)C(C)OC(=O)c2cc(Br)c(Br)s2)c(C)c1 (stereo not given)	-2	2529	12	9	-3	4	-14
Cc1[nH]c2ccccc2c1/C=C(\C#N)C(=O)NC(C)c1ccccc1 (stereo not given)	-22	22234*	4.8	-1	3	0	-21
Cc1ccc2cc(CN(C(=O)c3ccco3)c3ccccc3)c(=O)[nH]c2c1	0	3142	-11	19	-9	-11	-24
COc1ccccc1C/C(N)=N/OC(=O)c1cccc([N+](=O)[O-])c1	13	2361	3.7	·	·	0	18
CC(=O)OCCN(C)c1cc(SC(C)C)c2nonc2c1[N+](=O)[O-]	4	3313	2.1	1	5	9	-22
CCCCN(C(=O)c1cc(S(=O)(=O)N2CCOCC2)ccc1F)c1c(N)n(CCCC)c(=O)[nH]c1=O	·	4188	4.6	-2	5	6	-11
CC(=O)OCCN1C(=O)c2ccc(-c3nc4ccccc4c(=O)o3)cc2C1=O	1	4984	1.5	17	8	6	-15
CCOC(=O)Nc1cc(=O)c2ccccc2o1	11	10360	3.2	4	8	-5	-40
CCN1C(=NCCc2ccccn2)NC(c2cccc(C(F)(F)F)c2)C(C(=O)OC)=C1C (stereo not given)	·	·	4.3	7	-4	-1	·
N[C@@H](Cc1ccccc1)C(=O)N1CCC(C(=O)N[C@@H](CCC(=O)O)C(=O)O)CC1	5	3116	0.8	0	0	0	0
O=C(CSc1nnc(Nc2ccccc2)s1)NCc1cccs1	0	2488	4.3	0	6	6	-28
Cc1ccc(/C=C2\C(=N)N3N=C(CC(=O)N4CCOCC4)SC3=NC2=O)o1	1	5481	1.3	3	14	-2	-4
CN1CCN(C(=O)COc2ccc(N(C)S(=O)(=O)c3ccc(F)cc3)cc2)CC1	-5	4545	-3.3	-12	-2	-3	-30
COC(=O)COc1ccc(S(=O)(=O)Nc2ccccc2SC)cc1	2	23132*	19	5	9	-5	-12
O=Cc1cn(Cc2ccccc2)nc1-c1cccnc1	1	4422	1.5	7	1	3	0
O=S(=O)(c1cccs1)N1CCN(c2ccnc3cc(Cl)ccc23)CC1	-1	5990	·	·	·	·	-9
Cc1ccc(NC(=O)CCn2c(=O)[nH]c3ccsc3c2=O)cc1F	-3	3786	2.1	1	11	2	-5
CC1CC(C)CN(C(=O)C(Cc2ccccc2)n2cccc2)C1 (stereo not given)	1	4491	9.2	-11	9	-7	-13
O=C(Cn1c(-c2ccccc2)noc1=O)N1CCC(Cc2ccccc2)CC1	5	4613	1.3	15	11	2	-7
CCOC(=O)c1nnn(-c2nonc2-n2cccc2)c1CCl	11	2476	20	4	14	12	-17
COc1ccc(N(CC(=O)NCCSCc2ccc(Cl)cc2)S(C)(=O)=O)cc1Cl	-8	3808	3.1	6	4	-7	-19
O=C(NCCCN1CCOCC1)c1onc(CSc2ccncc2)c1C(=O)NCCCN1CCOCC1	3	2901	5.0	4	9	-11	-21
Cc1ccc2nc(-c3ccc(NS(=O)(=O)c4ccccc4)cc3)sc2c1	1	2154	1.2	4	6	-4	-44
CCCCc1cc(=O)oc2cc(C)cc(OCC(=O)N3CCC(C(=O)O)(c4ccccc4)CC3)c12	-5	4268	1.7	·	·	-16	-25
CCOc1ccc(NC(=O)COc2ccc(C(=O)NCC3CCCO3)cc2OC)cc1 (stereo not given)	·	3855	0.8	5	4	3	-19
O=C(CCc1ccc(S(=O)(=O)N2CCOCC2)cc1)Nc1ccc(N2CCOCC2)cc1	-6	3667	1.7	9	11	2	-5
Cc1ccc2nsnc2c1S(=O)(=O)NCc1ccncc1	8	3684	-8.8	25	10	-1	-3
O=c1c2ccccc2n(Cc2cccc(F)c2)c(=O)n1C1CCCC1	2	4945	-1.3	·	·	31	-6
CCN(c1ccccc1)S(=O)(=O)c1ccc(Cl)c(NC(=O)COC(=O)C2CC2C)c1 (stereo not given)	2	2954	6.7	-9	-4	0	-6
COC(=O)CCC/C=C1/SCC(NC(=O)c2ccccc2)C1O (stereo not given)	1	8036	8.1	7	0	10	-22
COc1cccc(C(=O)COC(=O)C2CC3CCCC(C2)C3=O)c1 (stereo not given)	3	6115	0.7	-1	-5	-3	-11
O=C(CSc1ncnc2scc(-c3ccccc3)c12)N1CCN(Cc2ccc3c(c2)OCO3)CC1	-2	10404	11	1	2	5	-1
COCCN(C(=O)CCC(=O)Nc1ccccn1)C(C(=O)NC(C)C)c1ccc(C)cc1 (stereo not given)	-3	3512	0.4	-1	2	0	-14
CCCCN(C(=S)Nc1ccccc1)C1CCS(=O)(=O)C1 (stereo not given)	-12	3188	-7.9	15	-22	-3	-2
CCc1ccc(CNC(=O)CCc2nnc(CCc3ccc(OC)cc3)o2)nc1	0	2503	-1.0	3	-2	13	-6
O=C(CN1CCCCC1CO)c1ccc(OC(F)F)cc1 (stereo not given)	·	3364	-1.8	15	4	7	-13
COc1cccc(-c2nnc(SCC(=O)NC3CCS(=O)(=O)C3)n2C)c1 (stereo not given)	·	3516	4.4	8	6	10	-23
COn1c(=O)c(=O)n(OC)c2ccccc21	-1	3750	4.9	1	4	4	-14
CCOc1ccc2nc(NS(C)(=O)=O)sc2c1	-1	9022	-3.8	2	8	-12	-16

Nothing new here: an excerpt of the list.
SMILES	BJeLR lethal	Bead autofluor	RN4220 kill	Mtb hypoxia rep	Mtb hypoxia rep growth	ugtP null kill	PrP UTR inh
COn1c(=O)c(=O)n(OC)c2ccccc21	-1	3750	4.9	1	4	4	-14
CCOc1ccc2nc(NS(C)(=O)=O)sc2c1	-1	9022	-3.8	2	8	-12	-16

Next part
SMILES	BJeLR lethal	Bead autofluor	RN4220 kill	Mtb hypoxia rep	Mtb hypoxia rep growth	ugtP null kill	PrP UTR inh
COc1ccccc1/C=C/c1nc(S(=O)(=O)c2ccccc2)c(NCCN(C)C)o1	5	5706	-5.0	1	-3	-3	-1
COc1ccc(-c2cc(C(=O)NNC(=O)c3csc(N4CCOCC4)n3)c3ccccc3n2)cc1OC	0	5131	5.4	-2	1	8	-36
C/C(=N\NC(=O)c1cccc(S(=O)(=O)Nc2cccc(Cl)c2)c1)c1cccs1	7	2385	·	·	·	·	-15
O=[N+]([O-])c1ccc(-c2nn(-c3ccccc3)cc2/C=N/n2c(-c3cccs3)n[nH]c2=S)cc1	-2	2913	·	·	·	·	-32
CCN1C=C(C(C)=O)C(=O)CC1	·	3892	4.4	-2	2	-1	-11
C=CCSc1cc(C)nc2c(-c3ccccc3)c(C)nn12	2	3717	6.7	6	17	6	-26
COC(=O)C1=C(C)N(c2cccc(C(C)=O)c2)C(=O)C1	9	10210	6.0	5	6	-3	-29
CSc1nc(=O)n2cc(C)ccc2n1	-1	4729	6.6	8	-2	-3	-36
CC(C)(C)C1CCC2(CC1)NC(=S)N(c1ccccc1)N2 (stereo not given)	2	3349	-1.4	·	·	29	-39
O=C(CCCC(=O)N(CC(=O)NC1CCCC1)Cc1ccc(F)cc1)Nc1ccccn1	-7	3163	-13	-1	3	-1	-18
O=C(C(=O)c1cc(Br)ccc1O)c1cc(Br)ccc1O	·	3133	100*	8	-3	100*	-25
Cc1ccnc2c(N3C(=O)C4C5C=CC(C5)C4(C)C3=O)cccc12 (stereo not given)	-11	5866	0.5	·	·	-4	-35
Cc1ccnc(SC2CC(=O)N(c3ccc(C(C)C)cc3)C2=O)n1 (stereo not given)	-4	3805	2.2	2	2	9	-13
Cc1ccc(C(CC(=O)c2ccc(Cl)cc2)C(=O)O)cc1 (stereo not given)	6	2047	26	-1	4	-1	-17
O=C(NCc1ccco1)C(=O)c1cn(CC(=O)N2CCCC2)c2ccccc12	·	4061	2.3	11	4	1	-7
Cc1cccc(NC(=O)c2nc[nH]c2C(=O)N[C@@H](C)C(=O)OC(C)(C)C)c1	8	4123	·	·	·	·	-4
O=c1cc(-c2ccccc2Cl)oc2c(NS(=O)(=O)c3cccc4nsnc34)ccc(O)c12	-11	2806	10	7	3	10	-21
Cc1cc(=O)n(-c2ccccc2Cl)[nH]1	4	3144	1.6	2	4	1	-32
COc1ccccc1NC(=O)N1CCN(Cc2ccc3c(c2)OCO3)CC1	-3	4624	5.4	14	5	2	-29
CC(=O)c1c(N2CCN(c3ccccc3)CC2)nc(=S)n(-c2ccccc2)c1C	17	3863	2.4	9	7	2	-16
Cc1cc2ncn(CC3CC3(Cl)Cl)c2cc1C (stereo not given)	5	4990	4.3	-9	-9	-3	-11
COc1ccc(N2CCN(Cc3nc(N)nc(Nc4ccccc4OC)n3)CC2)cc1	-1	4330	1.2	1	14	-1	-5
CCOc1ccc(NC(=S)NCc2cccnc2)cc1	-4	·	1.5	8	8	0	-11
Cc1cc(C)cc(OCC(=O)OC/C(O)=C(\C#N)c2nc3ccccc3[nH]2)c1	4	2737	1.8	2	2	-7	-11

Given with two lines to a compound: part of the list above.
Screens in order: BJeLR lethal, Bead autofluor, RN4220 kill, Mtb hypoxia rep, Mtb hypoxia rep growth, ugtP null kill, PrP UTR inh
- CC(=O)c1c(N2CCN(c3ccccc3)CC2)nc(=S)n(-c2ccccc2)c1C
→ 17, 3863, 2.4, 9, 7, 2, -16
- Cc1cc2ncn(CC3CC3(Cl)Cl)c2cc1C (stereo not given)
→ 5, 4990, 4.3, -9, -9, -3, -11
- COc1ccc(N2CCN(Cc3nc(N)nc(Nc4ccccc4OC)n3)CC2)cc1
→ -1, 4330, 1.2, 1, 14, -1, -5
- CCOc1ccc(NC(=S)NCc2cccnc2)cc1
→ -4, ·, 1.5, 8, 8, 0, -11
- Cc1cc(C)cc(OCC(=O)OC/C(O)=C(\C#N)c2nc3ccccc3[nH]2)c1
→ 4, 2737, 1.8, 2, 2, -7, -11

Other records
SMILES	BJeLR lethal	Bead autofluor	RN4220 kill	Mtb hypoxia rep	Mtb hypoxia rep growth	ugtP null kill	PrP UTR inh
N#C/C(=C/c1ccc(N2CCOCC2)c([N+](=O)[O-])c1)C(N)=O	5	9495	6.1	14	12	10	-16
CCN1C(=NCCc2ccc([N+](=O)[O-])cc2)NC(c2ccccc2)C(C(=O)OC)C1C (stereo not given)	·	·	0.7	20	6	2	·
CC(C)N(Cc1ccccc1)S(=O)(=O)c1ccc(F)cc1	-2	3816	5.7	14	14	12	-13
CC1CCCC(C)N1C(=O)COC(=O)Cc1ccc(F)cc1 (stereo not given)	-1	3032	2.4	9	-4	5	0
O=C(O)CN1C(=O)c2cccc3c(Br)ccc1c23	-1	3588	1.9	4	5	0	-25
COc1ccc(Cc2nnc(N/N=C/c3ccccc3O)[nH]c2=O)cc1OC	19	2123	·	·	·	·	31
CC(NC(=O)OC(C)(C)C)C(=O)N1CCCC1C(=O)NC(Cc1ccccc1)C(N)=O (stereo not given)	3	9026	0.4	3	-3	0	-23
CCN(c1ccc(OC)cc1)S(=O)(=O)c1ccc(-c2ccc(=O)[nH]n2)o1	0	4044	1.8	-7	8	-11	5
COc1ccc(S(=O)(=O)NCC2CCCN(CC(C)(C)C)C2)cc1 (stereo not given)	0	10041	7.3	2	7	13	-15
O=C(Nc1ccc(Cl)cc1Cl)C1=Cc2ccccc2OC1	-6	3293	-5.4	6	8	8	-130
Cn1c(CS/C(N)=N/N=Cc2ccccc2)c(Br)c(=O)n1-c1ccccc1	·	·	7.5	1	-1	-2	·
CN(c1ccc(C(=O)N2CCCCCC2)cc1)S(=O)(=O)c1ccc(Cl)cc1	11	5245	6.5	4	0	5	-11
